# Rango complex inh – qHTS Assay for Inhibitors of Rango (Ran-regulated importin-beta cargo) - Importin beta complex formation; Importin subunit beta-1 (Homo sapiens), Q14974; AID 540263, 2011; Potency, µM (highest dose often 92.2 µM), for the others: top-dose inhibition of complex formation; 0.031% of 340,000 active; Rango CFP/YFP FRET sensor + importin beta, 45 min; active = rising FRET ratio curve, often small or poorly fitted; inconclusive = mostly compound fluorescence or quenching in the first reads; inactive = flat curves in all reads;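 note: potency is the fitted concentration of half-maximal effect; 0% = DMSO wells and 100% = buffer wells lacking importin beta; nearly all actives have a fitted effect of over 15% in size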
# Target sequence (Q14974 whole entry, looked up): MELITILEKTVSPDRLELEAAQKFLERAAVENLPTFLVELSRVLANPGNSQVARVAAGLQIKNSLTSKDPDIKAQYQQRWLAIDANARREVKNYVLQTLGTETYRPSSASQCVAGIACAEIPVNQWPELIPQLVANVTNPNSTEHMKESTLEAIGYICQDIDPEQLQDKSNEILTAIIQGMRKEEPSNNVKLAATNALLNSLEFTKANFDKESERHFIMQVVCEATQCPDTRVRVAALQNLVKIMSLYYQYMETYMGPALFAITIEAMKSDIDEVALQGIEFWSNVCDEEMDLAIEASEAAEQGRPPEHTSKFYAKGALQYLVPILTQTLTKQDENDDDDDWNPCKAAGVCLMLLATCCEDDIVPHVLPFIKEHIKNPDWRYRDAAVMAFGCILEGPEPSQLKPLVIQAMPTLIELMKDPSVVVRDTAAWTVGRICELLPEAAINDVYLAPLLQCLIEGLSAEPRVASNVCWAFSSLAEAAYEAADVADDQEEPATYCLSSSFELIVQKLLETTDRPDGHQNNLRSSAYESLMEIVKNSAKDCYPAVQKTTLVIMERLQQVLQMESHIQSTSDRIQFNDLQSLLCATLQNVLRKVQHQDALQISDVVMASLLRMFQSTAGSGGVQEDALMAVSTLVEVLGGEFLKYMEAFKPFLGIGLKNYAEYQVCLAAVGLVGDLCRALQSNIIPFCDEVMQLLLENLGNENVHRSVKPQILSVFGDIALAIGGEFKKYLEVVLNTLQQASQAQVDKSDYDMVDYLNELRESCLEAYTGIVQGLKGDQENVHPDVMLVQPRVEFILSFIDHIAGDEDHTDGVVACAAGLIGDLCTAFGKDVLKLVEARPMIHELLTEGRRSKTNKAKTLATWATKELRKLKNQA
#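 Inhibition scored from the CFP 486 nm/YFP 530 nm FRET ratio 45 min after adding 0.125 microM importin beta to 50 nM Rango biosensor preincubated 5 min with compound (room temperature, PBS with DTT, Tween-20, BSA). No-importin wells as positive control.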
# Rango dissoc inh – qHTS Assay for Inhibitors of RanGTP induced Rango (Ran-regulated importin-beta cargo) - Importin beta complex dissociation | Snurportin-1 (Homo sapiens) + GTP-binding nuclear protein Ran (Homo sapiens) + Importin … | Biochemical FRET Rango-importin beta, RanGTP-induced dissociation | Potency, µM (doses to about 46.1 µM), inactives show at the highest dose activity change, negative = inhibition | 0.071% of 340,000 active | AID 540253, 2011; active means falling FRET ratio curve, often poorly fitted, with flat reads before Ran was added; inconclusive means other falling curves, or compound fluorescence or quenching; inactive means flat or rising ratio curve;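 note: potency is the fitted concentration of half-maximal effect; % of control where 0% means no effect; nearly all actives have a fitted effect of over 45% in size; -100% = wells without RanGTP and RCC1; the record marks most hits as doubtful in a second field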
#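 Rango FRET biosensor (snurportin-1 IBB flanked by N-terminal EYFP and C-terminal CFP10) at 0.1 uM, with 0.25 uM importin beta in PBS, 1mM DTT, 0.02% Tween-20, 0.1% BSA. 0.6 uM Ran, 2mM GTP and 0.2 uM RCC1 were then added for 45 min at room temperature. Inhibition read as loss of FRET rise.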
# GLA inh pH 4.5 – qHTS Assay for Inhibitors of Human alpha-Galactosidase at pH 4.5; activity change, negative = inhibition, % at 105 µM; 230,000 tested, under 10 active; AID 1467, 2008; Alpha-galactosidase A (Homo sapiens), P06280; purified enzyme, 4-MU-alpha-Gal fluorescence, pH 4.5; inconclusive = small, poorly fitted or top-dose-only inhibition, or a rising curve; inactive = flat fitted curve, though single readings scatter; no compound was filed as active;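 note: 0% = full activity with enzyme and -100% = basal without enzyme; dose as in the result columns while the protocol names 77 µM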
# miR-21 reporter – qHTS Assay for Modulators of miRNAs and/orActivators of miR-21; HeLa miR-21 FLuc reporter, luciferase, 48 h; Potency, µM (doses to about 38.3 µM), for the others: at the highest dose reporter change, positive = more light; 340,000 tested, under 10 active; AID 2288, 2010; active = well fitted rising curve with a large enough effect; inconclusive = small, poorly fitted or top-dose-only effect; inactive = no such curve, though single readings can be large or run the other way;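 note: % of control where 0% means no effect; miR-21 action dims this reporter so a rising signal means less miR-21 action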
#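 Using DMEM plus 10% FBS, HeLa miR-21-FLuc cells are incubated with test compounds (final up to about 40uM) for 48 hours; firefly luciferase signal is then imaged following reagent-mediated lysis.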
# Starred values were filed as active, the others as inactive; ? = inconclusive; . = no result given; & = joins results of further samples.
SMILES,Rango complex inh,Rango dissoc inh,GLA inh pH 4.5,miR-21 reporter
CCN(C(=O)COC(=O)c1cc([N+](=O)[O-])ccc1N1CCCCC1)C1CCS(=O)(=O)C1 (centres undefined),?,10.4%,-0.5,-15.1%
CC(=O)c1cccc(NC(=S)Nc2cccc3ccccc23)c1,0.2%,-11.4%,.,-50.0%
C#CCN1C(=O)S/C(=C/c2cc(C)n(CC)c2C)C1=O,?,?,13.1,-56.9%
CCC(=O)Nc1ccc2c(c1)ncn2-c1ccc(OC)cc1,4.2%,-3.0%,-3.5,-94.1%
O=C(NCc1cccs1)c1cnn2cccnc12,0.1%,9.7%,-1.1,0.7%
Cc1cccc(/C=N/NC(=O)Cn2nnnc2N)n1,0.0%,1.8%,0.9,-1.7%
COc1ccc(C(=O)Nn2c(C)nnc2-n2nc(C)cc2C)cc1OC,3.3%,1.0%,6.5,-11.5%
O=C(Nc1ccc(S(=O)(=O)N2CCCCC2)cc1)C1CCCO1 (centres undefined),-0.3%,1.5%,.,-0.2%
O=C(Nc1nccs1)C1C2/C=C\CCCCC21 (centres undefined),-0.1%,25.6%,1.9,-15.4%
O=C(NCCNc1ccc([N+](=O)[O-])cc1)c1cccc(Br)c1,-7.0%,12.4%,-3.1,-4.1%
O=C(Oc1c(Cl)cc(Cl)c2ccccc12)N1CCCC1,-1.0%,16.7%,7.6,-1.7%
O=C(NCCc1cccc(F)c1)[C@@H]1CSC2c3ccccc3C(=O)N21 (some centres undefined),-2.5%,0.0%,4.0,1.1%
CCCc1nc2c(=O)n(C)c(=O)[nH]c2n1CCC,-3.8%,-11.8%,3.1,0.6%
C[C@@H]1CC[C@]2(O[C@H](CCO)C[C@@H](O)[C@@H]2O)O1,-0.1%,33.5%,.,.
CCOC(=O)CSc1nc(C)c2cc(C)c(C)cc2n1,-2.8%,28.8%,2.5,-2.8%
OCC1(CO)COC2(CCCC2)N1,-0.2%,-12.6%,-10.3&-2.9,-2.1%&1.8%
Nc1sc2c(c1C(=O)c1ccccc1)CCCC2,-4.7%,4.0%,-6.2,-7.8%
O=C(CN1CCN(c2cccc(Cl)n2)CC1)N1CC(O)CO1 (centres undefined),-2.1%,8.8%,8.6,0.1%
O=C(NCCc1csc(-c2ccccc2)n1)c1c(F)cccc1Cl,0.3%,10.6%,-2.8,-2.2%
Cc1nc(SC2CC(=O)N(c3ccccc3)C2=O)n[nH]1 (centres undefined),5.5%,7.9%,14.3,2.3%
OC1(c2cccc(C(F)(F)F)c2)CCN(Cc2nnnn2CCc2ccccc2)CC1,5.8%,-6.9%,-8.2,1.3%
Cc1cc(C)cc(N(CC(=O)O)S(=O)(=O)c2c(C)[nH]c(=O)[nH]c2=O)c1,2.8%,33.4%,-1.4,-0.2%
OC(CN1CCN(C(c2ccccc2)c2ccccc2)CC1)c1ccccc1 (centres undefined),-1.4%,1.4%,.,1.0%
CCCOc1ccc(NC(=O)CC2C(=O)Nc3ccccc3N2CC(=O)N2CCCC2)cc1 (centres undefined),?,-16.3%,.,.
COc1cccc(N2CCN(S(=O)(=O)c3ccc4c(c3)oc(=O)n4C)CC2)c1,4.9%,-15.4%,.,1.0%
O=S(=O)(NN1CCOCC1)c1ccc(Cl)s1,0.1%,28.6%,-2.6,-1.8%
CCC1([N+](=O)[O-])COC(C=Cc2ccccc2)OC1 (centres undefined),0.3%,-2.6%,.,.
O=C(CN1C(=O)C2CCCCC2C1=O)Nc1cc([N+](=O)[O-])ccc1F (centres undefined),-3.0%,1.8%,.,.
O=C(CCCSc1nc2ccccc2c(=O)[nH]1)c1ccccc1,-5.3%,-26.0%,3.5,-11.0%
Cc1ccc2nc(SCC(=O)N/N=C/c3ccco3)cc(C)c2c1,6.2%,-8.7%,-7.8,4.0%
O=C(NNC(=O)C1C2C=CC(C2)C1C(=O)O)c1cc(Cl)ccc1O (centres undefined),-3.2%,-0.4%,.,-11.9%
Cc1oc(C)c(C(=O)O)c1C(=O)O,-1.0%,-16.5%,-2.1,0.2%
CS(=O)(=O)N(CC(=O)N1CCCCC1)C1CCCCC1,0.2%,7.7%,-4.7,1.5%
COc1ccc(/C=N/NC(=O)c2ccc(OC)c(OC)c2)cc1COc1c(F)c(F)c(F)c(F)c1F,-2.3%,1.3%,.,-4.9%
CSc1nc(SCC(=O)O)c2sc3nc(-c4ccccc4)c4c(c3c2n1)CCC4,-0.4%,-19.6%,-8.6,-5.1%
O=C(COC(=O)COc1cccc(C(F)(F)F)c1)Nc1ccc(N2CCOCC2)cc1,-2.8%,-10.4%,.,.
COc1cc(/C=C/C(=O)OCN2C(=O)c3ccccc3C2=O)ccc1OC(F)F,1.1%,1.3%,.,-2.1%
CCOC(=O)C(CCOc1cccc(CC)c1)C(=O)OCC,3.1%,13.7%,1.4,-3.0%
COc1cc(NC(=O)CNC(=O)Cn2ccc3ccccc3c2=O)cc(OC)c1OC,-2.1%,12.6%,.,4.1%&8.1%
CCOC(=O)c1ccc(S(=O)(=O)Nc2cc(S(=O)(=O)N3CCOCC3)ccc2O)cc1,0.0%,6.6%,.,.

# Some of these compounds in order of molar mass, smallest number first.
SMILES,Rango complex inh,Rango dissoc inh,GLA inh pH 4.5,miR-21 reporter
O=C(CCCSc1nc2ccccc2c(=O)[nH]1)c1ccccc1,-5.3%,-26.0%,3.5,-11.0%
Cc1ccc2nc(SCC(=O)N/N=C/c3ccco3)cc(C)c2c1,6.2%,-8.7%,-7.8,4.0%
COc1ccc(/C=N/NC(=O)c2ccc(OC)c(OC)c2)cc1COc1c(F)c(F)c(F)c(F)c1F,-2.3%,1.3%,.,-4.9%

# Next part.
SMILES,Rango complex inh,Rango dissoc inh,GLA inh pH 4.5,miR-21 reporter
Cc1cc(NC(=O)c2cccs2)n(-c2nc3ccccc3[nH]2)n1,-1.8%,3.3%,-1.2,1.3%
CC1CN(C(=S)SCC(=O)c2ccc([N+](=O)[O-])cc2)CC(C)O1 (centres undefined),0.1%,23.1%,.,1.0%
CC(C)(C)S(=O)(=O)/C(C#N)=N/Nc1ccc(Cl)cc1,1.6%,1.4%,2.2,?
COc1cccc(O)c1CN1CCCC(C(=O)c2cccc(C(F)(F)F)c2)C1 (centres undefined),-0.7%,18.3%,10.4,1.4%
Cc1ccc2cc3cc(C(=O)N4CCN(Cc5ccccc5)CC4)sc3nc2c1,4.4%,0.3%,-3.4,-1.5%
COc1ccc(OCC(O)CNCCOc2ccccc2OC)c(C(C)(C)C)c1 (centres undefined),-2.7%,17.2%,.,?
COc1ccc(NC(=O)CCC(=O)Nc2cc(OC)c(NC(=O)c3cccs3)cc2OC)cc1,0.5%,5.6%,.,5.2%
CCOc1ccc(NC(=O)NC(C)CC)cc1 (centres undefined),0.1%,-0.3%,-2.1,-31.7%
O=Cc1ccc(Oc2ncccn2)cc1,0.3%,0.6%,11.3,-0.1%
CC1CCC2C(=O)N(c3ccc(S(=O)(=O)c4ccccc4)cc3)C(=O)C2C1 (centres undefined),5.5%,17.9%,-5.4,-1.8%
Cc1cc(C)c(NC(=O)CN)c(C)c1,-2.0%,-9.1%,5.2,-0.9%
Cn1nc(C(=O)Nc2cccc(S(=O)(=O)N3CCOCC3)c2)c2ccccc2c1=O,-3.1%,1.1%,.,.
Cc1nnc2c(NC3CCCC3)nc3ccccc3n12,-2.5%,2.2%,7.7,2.2%
COc1ccccc1C(=O)NCC(=O)NC1CCCc2ccccc21 (centres undefined),0.3%,-3.6%,-9.3,11.9%
CCOC(=O)C1CCCN(CCC(=O)Nc2cccc(C)c2)C1 (centres undefined),2.9%,-1.1%,-1.0,-57.0%&-8.7%
COc1ccccc1C(=O)N=Nc1c(O)[nH]c2ccc([N+](=O)[O-])cc12,3.0%,?,-5.7,-14.2%
CC1CCN(C(=O)c2ccc(NS(=O)(=O)c3ccccc3)cc2)CC1,-1.0%,0.7%,.,-21.3%
C=CCn1c(SCC(=O)c2ccccc2)nnc1-c1cc2ccccc2o1,0.4%,-18.3%,2.8,-5.3%
CCOC(=O)c1c(N)sc2c1CCC1C(=O)N(C3CCCCC3)C(=O)C21 (centres undefined),?,?,5.2,-33.9%
Cc1ccsc1/C=N/n1c(COc2ccccc2)n[nH]c1=S,-0.8%,15.4%,2.8,-20.5%
CC(=O)Nc1ccc(S(=O)(=O)NCCc2cn3nc(C)c(C)nc3n2)cc1,-1.6%,-2.8%,.,0.1%
CCCCCCCCOC(=O)c1ccc(N)cc1,-0.8%,19.5%,-4.3,-13.3%
CC(C)(C)n1nc2c(c1NC(=O)Cc1cccc3ccccc13)CS(=O)(=O)C2,-7.9%,-6.6%,-1.4,0.7%
Cc1cccc(NC(=S)NC(=O)/C=C/c2ccco2)n1,-0.1%,-5.9%,-1.6,-28.5%
N#CCc1nn2c(-c3ccccc3)ccnc2c1C#N,-4.0%,-3.9%,.,-1.6%
COc1ccccc1CCNC(=O)c1c(C)nn(CC(C)C)c1Cl,-3.9%,13.8%,.,-30.0%
COc1cccc(-c2cc(C(=O)N/N=C/c3ccc(OC)c(COC(C)=O)c3)c3ccccc3n2)c1,0.6%,-0.9%,-6.2,-2.2%
O=C(NC1CCC(CC2CCC(NC(=O)C(Cl)Cl)CC2)CC1)C(Cl)Cl (centres undefined),-1.0%,-20.7%,.,7.3%
O=C(Cn1nc(C(F)(F)F)c2c1CCCC2)NCCN1CCOCC1,2.7%,0.2%,-2.2,-6.3%
CN(CC(=O)Nc1cccc(F)c1)C(=O)CCN1C(=O)C2CC=CCC2C1=O (centres undefined),-5.8%,-18.3%,.,.
Oc1ccc(C[C@H]2CNC(=S)N2CCc2cc(C(F)(F)F)cc(C(F)(F)F)c2)cc1,2.0%,36.2%,-10.4,4.8%
CC(=O)Nc1cccc(C(=O)Nc2nc(C)cs2)c1,-3.7%,17.0%,1.5,-16.2%

# 15 structures from above, ordered by length of the SMILES, lowest first:
SMILES,Rango complex inh,Rango dissoc inh,GLA inh pH 4.5,miR-21 reporter
CCCCCCCCOC(=O)c1ccc(N)cc1,-0.8%,19.5%,-4.3,-13.3%
N#CCc1nn2c(-c3ccccc3)ccnc2c1C#N,-4.0%,-3.9%,.,-1.6%
CC(=O)Nc1cccc(C(=O)Nc2nc(C)cs2)c1,-3.7%,17.0%,1.5,-16.2%
Cc1cccc(NC(=S)NC(=O)/C=C/c2ccco2)n1,-0.1%,-5.9%,-1.6,-28.5%
Cc1ccsc1/C=N/n1c(COc2ccccc2)n[nH]c1=S,-0.8%,15.4%,2.8,-20.5%
COc1ccccc1CCNC(=O)c1c(C)nn(CC(C)C)c1Cl,-3.9%,13.8%,.,-30.0%
O=C(Cn1nc(C(F)(F)F)c2c1CCCC2)NCCN1CCOCC1,2.7%,0.2%,-2.2,-6.3%
C=CCn1c(SCC(=O)c2ccccc2)nnc1-c1cc2ccccc2o1,0.4%,-18.3%,2.8,-5.3%
CC1CCN(C(=O)c2ccc(NS(=O)(=O)c3ccccc3)cc2)CC1,-1.0%,0.7%,.,-21.3%
CCOC(=O)c1c(N)sc2c1CCC1C(=O)N(C3CCCCC3)C(=O)C21 (centres undefined),?,?,5.2,-33.9%
CC(=O)Nc1ccc(S(=O)(=O)NCCc2cn3nc(C)c(C)nc3n2)cc1,-1.6%,-2.8%,.,0.1%
CN(CC(=O)Nc1cccc(F)c1)C(=O)CCN1C(=O)C2CC=CCC2C1=O (centres undefined),-5.8%,-18.3%,.,.
CC(C)(C)n1nc2c(c1NC(=O)Cc1cccc3ccccc13)CS(=O)(=O)C2,-7.9%,-6.6%,-1.4,0.7%
Oc1ccc(C[C@H]2CNC(=S)N2CCc2cc(C(F)(F)F)cc(C(F)(F)F)c2)cc1,2.0%,36.2%,-10.4,4.8%
COc1cccc(-c2cc(C(=O)N/N=C/c3ccc(OC)c(COC(C)=O)c3)c3ccccc3n2)c1,0.6%,-0.9%,-6.2,-2.2%

# The list is partial, so the mix of outcomes need not match the whole.
